Mtb bLac sens – beta-lactam sensitization of Mtb H37Rv; M. tuberculosis H37Rv growth with meropenem, percent inhibition; hits of this screen are not shown here; inhibition, % at 25 µM; AID 434955; 330,000 compounds, 0.27% hits;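 active means about 74% or more and at least 40 points above the plate without the antibiotic, then above 30% in a dose series; inconclusive means first-round hits that could not be retested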;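 further: growth measured after seven days incubation then overnight dye step; 0% = bacteria only wells and 100% = bacteria with antibiotic; twin plates without the antibiotic show which effects depend on it; some results filed as inactive read as strong as hits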
Mtb H37Rv – M. tuberculosis H37Rv growth inhibitors, H37Rv strain (AID 1626); inhibition, % at 10 µM, or IC50 in µM where a hit was titrated; M. tuberculosis H37Rv growth inhibition; higher % means a stronger effect; 220,000 compounds, 0.95% hits;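 active means confirmed in a dose series; inconclusive means inhibition above 80% but not taken into the dose series; inactive means below 80% or under 30% at every dose of the series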;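 further: bacteria incubated seven days before Alamar blue readout; 0% = bacteria only wells and 100% = bacteria with antibiotic wells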
RecA splice inh – blocks M. tuberculosis RecA intein splicing | cell-free RecA intein splicing, fluorescence | inhibition, %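 (about 9 µM by stock and volumes)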 | 290,000 compounds, 0.75% hits; in the data active means inhibition above about 30%; inconclusive means no clear call, values can overlap the other calls;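 further: 0% = vehicle wells and 100% = reference inhibitor control wells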
Target sequence (P9WHJ3 whole entry, looked up, canonical isoform): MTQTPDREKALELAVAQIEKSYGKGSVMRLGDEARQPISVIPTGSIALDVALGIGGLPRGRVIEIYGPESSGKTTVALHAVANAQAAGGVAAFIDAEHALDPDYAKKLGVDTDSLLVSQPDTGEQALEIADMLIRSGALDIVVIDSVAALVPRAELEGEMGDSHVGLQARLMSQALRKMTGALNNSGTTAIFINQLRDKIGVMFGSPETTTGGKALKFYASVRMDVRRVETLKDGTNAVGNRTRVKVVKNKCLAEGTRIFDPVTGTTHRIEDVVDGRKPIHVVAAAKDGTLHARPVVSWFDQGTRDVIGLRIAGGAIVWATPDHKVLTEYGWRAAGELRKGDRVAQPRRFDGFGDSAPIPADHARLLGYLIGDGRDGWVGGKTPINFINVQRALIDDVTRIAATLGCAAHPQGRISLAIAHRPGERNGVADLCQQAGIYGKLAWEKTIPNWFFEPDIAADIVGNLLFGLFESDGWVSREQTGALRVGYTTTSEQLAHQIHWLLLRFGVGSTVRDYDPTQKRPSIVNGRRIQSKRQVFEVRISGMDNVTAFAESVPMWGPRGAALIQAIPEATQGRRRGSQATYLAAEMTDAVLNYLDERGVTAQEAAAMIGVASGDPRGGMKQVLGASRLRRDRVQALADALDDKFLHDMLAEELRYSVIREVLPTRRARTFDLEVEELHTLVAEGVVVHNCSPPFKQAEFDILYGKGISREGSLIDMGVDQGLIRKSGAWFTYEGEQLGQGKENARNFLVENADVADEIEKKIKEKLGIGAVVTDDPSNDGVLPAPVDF
YopH PTP inh – blocks Yersinia enterocolitica YopH tyrosine phosphatase | fluorescence Ex485/Em525 | inhibition, %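 (about 10 µM by stock and volumes)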 | 140,000 compounds, 0.16% hits | AID 898;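 active means inhibition of 50% or more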;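 further: controls were vehicle for no effect and minimum signal wells for full effect; inactives centre near -20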
Arbovirus inh – blocks arbovirus infection | arbovirus infection cell-based antiviral screen | inhibition, % at 10 µM | 200,000 compounds, 0.37% hits | AID 1251;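 active means inhibition from about 30%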;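 further: bluetongue infection of BSR cells; cell survival read as ATP light after 72 h; 0% = infected wells without compound and 100% = uninfected wells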
Arbovirus inh repeat – second read-out of Arbovirus inh, no call of its own (marks repeat the call); inhibition, %; measured here: 10K subset replicate screen; many hits read low in the repeat;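 first of two repeat runs on a subset; 0% = infected and 100% = uninfected wells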
Numbers without * were called inactive; u = inconclusive; x = not tested or not shown; & = joins results of further samples. Only part of the results is shown; rates above refer to the full screens.

SMILES	Mtb bLac sens	Mtb H37Rv	RecA splice inh	YopH PTP inh	Arbovirus inh	others
Cc1ccc(CN2CCN(CC(C)C)C(CCO)C2)s1 (configuration not stated)	-7	-1%	2.8	x	-3
CC(C)Cn1c(SCC(=O)Nc2ccc3[nH]c(=O)[nH]c3c2)nc2ccccc2c1=O	-9	x	1.7	x	x
O=C(OCC(=O)c1c[nH]c2ccccc12)c1cc2ccccc2cc1O	92	11µM*	0.4	0	-1
Cn1c2c(c(=O)n(C)c1=O)CN(CCc1ccccc1)CN2	3	-2%	-4.5	-18	0
COC(=O)c1c(NC(C)=O)sc2c1CCCC2	-6	-2%	0.7	-32	-14
O=C(NNc1ccc(F)cc1F)C1CCC1	94	u	-2.5	x	x
C/C(=N\N1C(=O)c2ccccc2C1=O)c1cccc([N+](=O)[O-])c1	1	-5%	-0.7	-21	-1
CCN(CC)Cc1nc2c(c(=O)[nH]1)C1(CCCCC1)Cc1ccccc1-2	99	6.8µM*	7.5	-18	4
COc1cccc(C(=O)OCCN2C(=O)c3ccccc3C2=O)c1OC	89	-11%	-0.1	-2	0
CCc1ccccc1NC(=O)c1cc(C)no1	-12	x	0.3	x	x
Cc1cccc(C(=O)Nc2ccnc(-c3cccnc3)n2)c1	-2	7%	2.0	x	5
COc1ccc(N2CCN(CC(=O)Nc3nnc(-c4ccccc4)s3)CC2)cc1	98	73%	x	-37	-10
CCCCCCCC[n+]1c(C)n(-c2ccccc2)c2ccc(NC(C)=O)cc21	84	15%	5.7	x	-3
Cc1cc(C)c(NC(=O)OCCN2CCOCC2)c(C)c1	-9	1%	-0.1	-29	0
COCCOC(=O)c1c(NC(=O)CN(C)c2ccccc2)sc(C(N)=O)c1C	0	3%	4.5	x	14

Three records drawn at random from those above, as already listed:
SMILES	Mtb bLac sens	Mtb H37Rv	RecA splice inh	YopH PTP inh	Arbovirus inh	others
O=C(OCC(=O)c1c[nH]c2ccccc12)c1cc2ccccc2cc1O	92	11µM*	0.4	0	-1
COCCOC(=O)c1c(NC(=O)CN(C)c2ccccc2)sc(C(N)=O)c1C	0	3%	4.5	x	14
COC(=O)c1c(NC(C)=O)sc2c1CCCC2	-6	-2%	0.7	-32	-14

Next part:
SMILES	Mtb bLac sens	Mtb H37Rv	RecA splice inh	YopH PTP inh	Arbovirus inh	others
CC(C)CNC(=S)N(CCN(C)C)Cc1cc2cc3c(cc2[nH]c1=O)OCO3	-6	x	2.0	x	x
CCC(C)NCCCOc1ccc([N+](=O)[O-])cc1 (configuration not stated)	-3	-8%	-1.1	-24	2
O=C(c1cccs1)N1CCN(C2CCCCC2)CC1	0	-20%	x	-14	5
O=C(Nc1ccccc1)Nc1cccn(Cc2c(F)cccc2Cl)c1=O	-2	5%	8.1	x	-11
COc1ccc2nc3ccccc3nc2c1	-5	-4%&8%	-29	x	-10	Arbovirus inh repeat=-2
COc1ccc(S(=O)(=O)NCC2CCCN(Cc3cn(C)nc3C)C2)cc1 (configuration not stated)	1	x	-0.1	x	x
Cc1cc(S(=O)(=O)NCC(C)C)ccc1OCC(=O)NC1CC1	-4	x	-3.6	x	x
Nn1c(COc2ccccc2F)nnc1SCC(=O)NC1CCS(=O)(=O)C1 (configuration not stated)	-12	x	-2.5	x	x
COc1ccc(NC(=O)c2cc(OC)c(OC)c(OC)c2)cc1S(=O)(=O)N1CCCCC1	-4	2%	16	x	-24
Cc1cccc(C)c1NC(=O)C1(N2CCN(C(=O)c3ccco3)CC2)CCCCC1	-3	-3%	-1.6	-24	-1
CCc1nn(-c2cc(Oc3cccc4ccccc34)nc(-c3ccccc3)n2)c(N)c1C#N	0	2%	x	-17	-2
Cc1c(NC(=O)/C(C#N)=C/c2c(N3CCCCC3)nc3ccccn3c2=O)c(=O)n(-c2ccccc2)n1C	-3	-6%	-1.6	x	x
Cc1ccc(N2CCN(S(=O)(=O)c3ccc(C)cc3)CC2)cc1	-1	x	-6.4	x	x
CC(C)C[C@H](NC(=O)c1nc[nH]c1C(=O)NC(c1ccccc1)c1ccccc1)C(=O)OCc1ccccc1	-1	16%	-0.3	x	-4
Cc1ccc(OCc2cc(C(=O)N3CCN(C4CCCCC4)CC3)no2)cc1C	17	x	3.2	x	x
CCOC(=O)c1c(NC(=O)CC2Nc3cc(C)c(C)cc3NC2=O)sc(C)c1C (configuration not stated)	-1	2%	-9.3	-16	4
CCOP(=O)(O)c1ccccc1OCCOCCOc1ccccc1P(=O)(O)OCC	-1	2%	-3.4	-65	-4
COc1ccc(CCN2C(=O)c3cccnc3C2=O)cc1OC	0	-8%	5.8	-20	-1
Cn1c(=O)c2c(ncn2CCCC(=N)N2CCOCC2)n(C)c1=O	2	1%	0.5	x	-2
CCOC(=O)c1ccc(-n2c(CCC(=O)O)ccc2-c2cccs2)cc1	60	>100µM*	-2.3	x	4
O=C(CSc1ccccn1)Nc1ccc2c(c1)oc1ccccc12	92	<0.2µM*	3.4	-24	-12
COc1cc(Cl)c(C)cc1NC(=O)CSc1nnc(-c2cccnc2)n1Cc1ccco1	6	-2%	1.3	-38	5	Arbovirus inh repeat=2
COCC(=O)N/N=C\c1ccc(OC/C=C/c2ccccc2)c(OC)c1	17	x	0.4	x	x
O=C(CCC1COc2ccccc2O1)Nc1ccccn1 (configuration not stated)	-12	3%	-0.7	4	6
CC12CCC(=O)N1C(C(=O)N1CCN(S(=O)(=O)c3ccccc3F)CC1)CS2 (configuration not stated)	-6	x	2.1	x	x
Cc1ccc(C(=O)CSc2ncnc3ccccc23)o1	-4	11%	1.3	x	2
O=C(COc1ccccc1)Nc1ccc(-c2ccc(N3CCOCC3)nn2)cc1	-7	x	1.0	x	x
COc1cc(Nc2ccc(S(N)(=O)=O)cc2)c([N+](=O)[O-])nc1[N+](=O)[O-]	-2	x	2.7	x	x
O=C(c1ccc(Cl)c(Cl)c1)c1cnc(Nc2ccccc2)s1	-9	-6%	0.2	-7	6
COc1ccc(NC(=O)CN(C)C(=O)c2ccccc2Sc2ncnc3sc(C)c(C)c23)cc1	-13	x	3.6	x	x
C=CCn1c(=O)c(C(=O)NCCc2ccc(Cl)cc2)c(O)c2cc(OC)c(OC)cc21	8	x	-1.9	x	x
OCCNc1nc(-c2ccccc2)nc2ccccc12	8	0%	-5.1	x	17
CCN1CCN(CCCN(Cc2ccco2)C(=S)Nc2ccc(Cl)cc2)CC1	-3	0%	-0.2	x	-11
CCOC(=O)C1CCN(C(=O)CCn2c(=O)[nH]c3ccccc3c2=O)CC1	-3	-12%	0.7	-13	0
CC(=O)Nc1sc(NC(=O)c2ccc([N+](=O)[O-])cc2)nc1-c1cccs1	-6	2%	-1.3	x	x
O=C(CCC(=O)c1cccs1)NCCc1ccc(F)cc1	3	x	-0.2	x	x
COc1ccc(N(CC(=O)NC2CC2)S(=O)(=O)c2ccccc2)cc1	0	x	-0.6	x	x
COCCn1c(-c2ccc(NC(C)=O)cc2)nc2c1c(=O)[nH]c(=O)n2CC(C)C	3	x	2.7	x	x
CCn1c(CCCNC(=O)c2ccco2)nc2ccccc21	-8	x	-0.1	x	x
NC(=S)Nc1ccc(S(=O)(=O)c2ccc(NC(N)=S)cc2)cc1	-3	x	-34	x	x
C/C(Cl)=C\Cn1c(N2CCCC2)nc2c1c(=O)n(C)c(=O)n2C	-3	x	-1.1	x	x
O=C(CN1C(=O)NC2(CCCC2)C1=O)OCCOc1ccccc1	u	x	0.9	x	x
CC(C)(C)C(=O)Nc1nc2cc3c(cc2s1)OCO3	34	0%	1.7	x	x
COc1ccccc1N1CCN(S(=O)(=O)c2cc3c(cc2C)NC(=O)CO3)CC1	6	x	2.5	x	x
Brc1ccc(-c2nc3ncccn3c2Nc2ccc3c(c2)OCCO3)o1	100	7%	-2.3	-30	-14
CC(C)NC(=O)COC(=O)c1ccccc1Oc1ccccc1	35	x	-0.5	-10	5
CC1CCN(CCCNC(=O)c2ccc(CS(=O)(=O)Cc3ccc(Cl)cc3)o2)CC1	1	x	-5.6	x	x
O=C(O)C1Sc2[nH]c(=O)sc2C2c3ccc(O)cc3OC(=O)C12 (configuration not stated)	4	-3%	-65	x	2
O=C(O)c1cc(S(=O)(=O)N2CCOCC2)ccc1N1CCCCC1	-7	-3%	-2.7	x	3
Cc1cc(N=Nc2ccc(Cl)cc2)cc(CN2CCOCC2)c1O	79	-1%	4.4	x	x
CCC(C)(C)NC(=O)CN(C(=O)CNS(=O)(=O)c1ccccc1)c1ccc2c(c1)OCCO2	-11	x	19	x	x
Cc1ccc(OCc2n[nH]c(=S)n2N)cc1C	4	-8%	5.1	x	6
COCCCN1C2=C(C(=O)CC(C)(C)C2)C(c2ccc(OC)c(OC)c2)C2=C1CC(C)(C)CC2=O	-2	x	-2.2	x	x
COC(=O)c1ccccc1NC(=O)COC(=O)CSc1nnc(N)s1	3	0%	1.5	x	2
Cc1ccc(N2CCN(CC(O)COc3cccc4ccccc34)CC2)cc1 (configuration not stated)	7	x	6.0	x	x
COC(=O)c1ccc(C(=O)OC)c(NC(=O)C2CCCO2)c1 (configuration not stated)	-1	x	0.9	x	x
O=C(c1ccccc1)c1cc(-c2ccccc2)on1	12	0%	1.5	-38	-7
CC(C)c1ccccc1OCCNC(=O)c1cncc(Br)c1	-4	-4%	1.8	x	-27
COc1cc(Cl)ccc1NC(=O)COc1ccccc1C(=O)NN	-1	10%	2.1	x	2
Cc1ccc(F)c(N=Cc2c(O)c3ccccc3oc2=O)c1	12	x	0.4	x	x

(more compounds)
SMILES	Mtb bLac sens	Mtb H37Rv	RecA splice inh	YopH PTP inh	Arbovirus inh	others
COC(=O)[C@H](C)NC(=O)Nc1ccccc1F	0	-8%	3.0	6	-3
O=C(NC1CCCC1)C1CCN(c2cnccn2)CC1	0	-1%	x	x	-3
CCOC(=O)c1c(C)[nH]c(C(=O)NCCN2CCOCC2)c1C	-1	x	-0.7	x	x
CCN(CCn1cccn1)C(=O)CC1C(=O)NCCN1Cc1ccc(F)cc1 (configuration not stated)	-5	-4%	-0.9	x	6
COc1ccccc1Nc1nc(N)nc(CN2CCCCCC2)n1	-1	-1%	0.7	2	2
Cc1cc(O)c(C=Nc2cccc(Cl)c2)c(=O)o1	2	-1%	-6.7	-35	8	Arbovirus inh repeat=6
Cc1csc(NC(=O)c2cccnc2Cl)n1	0	x	2.4	x	x
COCCCn1c(O)c(/C=C2\N=C(C#N)C(=Nc3ccc(C)cc3)O2)sc1=S	-2	-2%	2.1	x	x
CC(C)Oc1cccc(C(=O)C2CCCN(C(=O)c3ccccn3)C2)c1 (configuration not stated)	0	x	0.1	x	x
COC(=O)C1C2c3ccccc3OC1(C)N=c1s/c(=C/c3cnn(C)c3)c(=O)n12 (configuration not stated)	99	58%	-0.6	-23	-15
CCCN1CCN(C(=O)Cn2cnc3ccc(S(=O)(=O)N4CCC(C)CC4)cc3c2=O)CC1	2	-2%	-0.5	x	9
C/C(=N/NC(=O)c1nnn(-c2nonc2N)c1COc1ccccc1)c1ccc(O)cc1	4	x	0.4	x	x
COc1cc(C2CC(=O)n3c(nc4ccccc43)S2)cc(OC)c1OC (configuration not stated)	x	-4%	-0.8	0	-1
CN1C(C(=O)NCc2cccc(Br)c2)CC2Cn3c(nc4ccccc43)C21 (configuration not stated)	-2	-8%	1.8	x	x
O=C(NCc1nc2ccccc2[nH]1)C1=C[C@H](c2ccccc2)C[C@H](OCc2ccc(CO)cc2)O1	-5	-3%	1.3	x	6
Cc1c(NC(=O)NC(=O)c2ccc(F)cc2)c(=O)n(-c2ccccc2)n1C	-3	-10%	-1.7	-21	-2
COC(=O)c1ccccc1NC(=O)Oc1ccc(F)cc1	-14	1%	0.2	-38	12
CCOC(=O)c1c(NC(=O)CN2CCOCC2)sc2c1CCCC2=O	-6	-3%	-1.9	0	-13
CCCCNCc1nc2ccccc2c(=O)[nH]1	2	-9%	-2.3	x	15
O=C1C(Cc2ccccc2)Nc2ncnc(N3CCN(c4ccccc4)CC3)c2N1Cc1ccc(Cl)cc1 (configuration not stated)	-5	x	4.3	x	x
O=S1(=O)N=C(N=Nc2c(O)[nH]c3ccccc23)c2ccccc21	5	0%	0.1	x	12
CCOC(=O)Cc1csc(NC(=O)CSc2nnc(C)n2C)n1	-3	-3%	-0.4	-2	4
CCN=C1S/C(=C\c2ccc(Sc3ccc(Cl)cc3)o2)C(=O)N1CC	-9	18%	-12	-26	7
CC1CCN(CCCOc2ccc(Cl)cc2Br)CC1	-16	8%	-0.9	x	-15
c1coc(-c2ncc[nH]2)c1	-1	-1%	-1.5	-2	2

Of the compounds above, 3 have a COOH group.
SMILES	Mtb bLac sens	Mtb H37Rv	RecA splice inh	YopH PTP inh	Arbovirus inh	others
CCOC(=O)c1ccc(-n2c(CCC(=O)O)ccc2-c2cccs2)cc1	60	>100µM*	-2.3	x	4
O=C(O)C1Sc2[nH]c(=O)sc2C2c3ccc(O)cc3OC(=O)C12 (configuration not stated)	4	-3%	-65	x	2
O=C(O)c1cc(S(=O)(=O)N2CCOCC2)ccc1N1CCCCC1	-7	-3%	-2.7	x	3
